# Screens deposited in PubChem BioAssay by ICCB-Longwood Screening Facility, Harvard Medical School.
# GIV-Gai inh: inhibitors of GIV peptide binding to Galpha-i3, primary screen, biochemical, fluorescence polarization, FITC-GIV GBA peptide, rat Galphai3. 90 min; stronger effect = lower value; scaled: aluminum fluoride 0%, vehicle 100%. percent of control (FP), % (test concentration not listed). hit rate 0.42% among 210,000;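 active = replicate mean at 85% of control or lower, very high polarization wells dropped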;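 also: wells of about 15 µL received 100 nL stock; the first replicate is given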
# Target sequence (P08753 whole entry, looked up): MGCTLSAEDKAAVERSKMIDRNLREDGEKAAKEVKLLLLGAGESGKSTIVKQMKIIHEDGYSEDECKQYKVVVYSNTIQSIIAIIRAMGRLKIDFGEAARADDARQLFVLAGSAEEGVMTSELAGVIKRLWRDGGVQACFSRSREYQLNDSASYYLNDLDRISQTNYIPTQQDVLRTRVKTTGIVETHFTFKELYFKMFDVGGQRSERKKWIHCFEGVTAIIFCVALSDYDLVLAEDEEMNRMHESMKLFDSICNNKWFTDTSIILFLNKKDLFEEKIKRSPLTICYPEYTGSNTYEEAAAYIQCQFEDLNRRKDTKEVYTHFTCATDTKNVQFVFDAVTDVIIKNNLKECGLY
# HCMV UL50-53 inh: inhibitors of HCMV UL50-UL53 interaction, biochemical, HTRF | AID 1918969, 2023 | HCMV UL50-UL53 nuclear egress complex (human cytomegalovirus) | hit rate 0.15% among 190,000 | normalized percent inhibition | inhibition, % (concentration not given with the values);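 active = both replicates at 50% or more, plus weaker picks with an unusually low signal ratio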;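 also: stock transfer was 100 nL into about 20 µL; 0% = negative control wells and 100% = wells with untagged competitor protein; inactives centre near -12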
# Sa growth inh: S. aureus growth inhibition at 42 and 30 °C, primary screen, LtaS inhibitor project, RN4220, two temperatures; OD600, 20 h, 42 °C; stronger effect = lower value; relative growth, % (no concentration beside the values); hit rate 0.53% among 170,000;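 active = growth at 42 °C up to 50% and 20 or more points under that at 30 °C, or under 10% at both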;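 also: 300 nL library stock went into each well; scaled to the means of positive and negative controls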
# Sa growth inh second temp: second read-out of Sa growth inh, no call of its own (marks repeat the call); relative growth, %; measured here: growth at 30 °C;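 optical density after 20 h as mean of two plates; 100% = untreated growth and lower means inhibition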
# * hit, by the source's call; . = no result given; & = joins results of further samples.
canonical_smiles	GIV-Gai inh	HCMV UL50-53 inh	Sa growth inh	Sa growth inh second temp
O=C(CSC1=NCCS1)Nc1nc(-c2ccc(Cl)cc2)cs1	97	-13	110	110
CC1=NN(C(=O)c2cccnc2)C(O)(c2ccccc2)C1 (stereo unspecified)	115	-28	95	78
CCOc1ccccc1NC(=O)C(CC)Sc1nc2ccsc2c(=O)n1Cc1ccccn1 (stereo unspecified)	101	3	85	80
S=C(Nc1cccc(Cl)c1)NC12CC3CC(CC(C3)C1)C2	.	-11	58	62
Cc1ccc2c(CNC3CCCC3)c(C(=O)O)n(Cc3ccc(F)cc3)c2c1	111	.	88	89
CC(=O)N1CCc2c(sc3c2c(=O)n(-c2ccccc2)c(=O)n3Cc2ccccc2C#N)C1	103	1	97	80
COc1ccc(CNC(=O)c2cc(=O)[nH]c3ccc(S(=O)(=O)N4CCCC4)cc23)cc1	114	.	86	90
COc1cc(OC)c(NC(=O)c2oc3ccc4c(c3c2C)C(=O)CC2(CCCC2)O4)cc1Cl	99	.	111	97
CC(C)C(=O)N1c2ccccc2NC2=C(C(=O)CC(C)(C)C2)C1c1cccc(Cl)c1 (stereo unspecified)	106	0	.	.
CNC(=S)N1CCNC(=O)C1CC(=O)Nc1cc(Cl)ccc1C (stereo unspecified)	105	7	102	71
CC(C)c1nn2c(=O)cc(COC(=O)c3ccccc3NC(=O)C3CCCCC3)nc2s1	101	.	88	90
CCOC(=O)c1cn(CC(=O)N(Cc2ccccc2)c2ccc(Br)cc2)nn1	105	-2	114	95
Cc1cccc(NC(=O)c2cnn(-c3ccccc3)c2NC(=O)c2ccco2)c1	.	5	81	116
Cc1ccc(-c2nc(C(=O)N3CCN(c4ccccc4)CC3)c3n2CCCCC3)cc1	99	.	112	92
O=C(c1c(-c2ccccc2)nnc2ccccc12)N1CC=C(c2ccccc2)CC1	99	-24	.	.
Cc1ccc(N(CC(=O)Nc2ccc(OC(F)(F)F)cc2)S(=O)(=O)c2c(C)noc2C)cc1	103	-17	106	89
CC1(C)Cc2ccccc2C(NNC(N)=O)=N1	103	-12	99	94
COc1cccc(CNC(=O)c2ccc(CSc3nc4ccncc4n3Cc3cccc(C)c3)cc2)c1	102&102	-28&-20	117	101
COc1cc2c(cc1OC)C(CC(=O)O)NCC2 (stereo unspecified)	.	-6	97	95
CCOc1ccccc1NC(=O)c1cn(C2CCCCC2)c(=O)c2c1c1ccccc1n2C	100	54*	103	86
CCc1ccc2c(c1)c(=O)c(C(=O)c1ccccc1)cn2CC(=O)Nc1ccc(C)c(Cl)c1	105	-28	107	96
O=C(CCN1C(=O)c2ccccc2S1(=O)=O)N1CCOCC1	102	-4	93	100
C[C@H]1CC2C([C@@H](O)C[C@@]3(C)C2CC[C@]3(O)C(=O)COC(=O)CCC(=O)O)[C@@]2(C)C=CC(=O)C=C12 (stereo partly specified)	.	-32	98	93
O=c1[nH]c2ccccc2nc1-c1cccs1	100	-21	93	86
Cc1ccc(NC(=O)CN(C)CC(=O)Nc2ccccc2)cc1	.	18	108	92
C=CCNC(=O)Nc1c[nH]c2ccc(F)cc2c1=O	96	-16	88	91
CCOc1ccc(CC2c3cc(OCC)c(OCC)cc3CCN2C(=O)COC(=O)c2cnccn2)cc1OCC (stereo unspecified)	.	-18	80	91
CCC(C)NC(=S)NC1CCCCC1 (stereo unspecified)	108	6	115	99
COc1ccc(NC(=O)NC2CC2)c(OC)c1	98	-37	101	102
COc1ccc(/C=C2/SC(=S)N(CC(=O)O)C2=O)c(OC)c1OC	97	-58	.	.
O=C(CC1SC(=Nc2ccccc2)N(c2ccccc2)C1=O)Nc1ccccc1 (stereo unspecified)	101	-16	.	.
COc1ccc(N2CCN(CCCNCc3c(C(=O)O)n(C)c4ccccc34)CC2)cc1	110	-8	99	99
COc1ccccc1NC(=O)Cc1noc2ccccc12	102	-14	.	.
CCCNCc1cc(=O)n2[nH]c(NCc3ccccc3)nc2n1	99	-25	.	.
CCN(CC)c1ccc2cc(-c3nnc(Nc4ccc(C)cc4)s3)c(=O)oc2c1	-70*	.	117	103
O/N=C/c1cc2ccccc2nc1Cl	.	-52	94	85
O=S(=O)(Cc1ccc(F)cc1)Cc1noc(-c2ccc(OC(F)(F)F)cc2)n1	108	2	109	112
CCC1C(=O)n2nc(-c3ccccc3)cc2N=C1C (stereo unspecified)	98	6	100	96
O=C(Cn1nnc(-c2cccc(C(F)(F)F)c2)n1)NC(=O)NC1CCCC1	.	-28	99	88
COc1cc(C2Sc3ccccc3NC3=C2C(=O)c2ccccc23)ccc1OC(C)=O (stereo unspecified)	101	.	111	84
CCCN1CCN(C(=O)CN2C(=O)CCn3nc(-c4cn(C)c5ccccc45)cc32)CC1	102	-16	.	.
Cc1nn(C2CCS(=O)(=O)C2)c(Cl)c1CNCCCn1ccnc1 (stereo unspecified)	.	-11	99	86
O=C1NC(=Nc2cccc(C(=O)O)c2)S/C1=C/c1ccc(-c2ccc(C(=O)O)cc2)o1	229	.	88	69
O=C(CC(C(=O)N1CCc2ccccc21)C(=O)N1CCc2ccccc21)c1ccccc1	100	5	115	88
COc1ccc(/C=C/C(=O)Nc2cccc(F)c2)cc1	104	-48	111	89
CCN(CC)S(=O)(=O)c1ccc(NC(=O)COc2ccc3c(C)cc(=O)oc3c2)cc1	.	-14	84	89
CC1CCc2cc(F)ccc2N1C(=O)C12CCC(c3nc(C#N)c(C#N)nc31)C2(C)C (stereo unspecified)	100	-13	107	93
O=C(CCSc1c(Cl)cccc1Cl)c1ccco1	103	-12	33	18
O=c1oc2ccccc2nc1/C=C(\O)c1ccccc1	46*	4	87	96
CCN(CC)C(=S)SCc1ncc(-c2ccccc2)o1	.	-3	107	88
CC(=O)Nc1cccc(C(C)(C)C)c1	109	1	93	95
O=C(CCOc1ccc(F)cc1)Nc1nccs1	102	-4	100	90
O=C(NC1CCSc2ccccc21)C1CCN(S(=O)(=O)c2ccccc2)CC1 (stereo unspecified)	.	-16	106	91
O=C(CC1N=C2c3ccccc3N=C(SCc3ccc(F)cc3)N2C1=O)NCCc1ccccc1 (stereo unspecified)	106	.	47	51
Cc1c(C(=O)OCC(N)=O)sc2nc(-c3cccs3)cc(C(F)(F)F)c12	.	-12	92	97
Cc1cccc(NC(=O)c2cc(N3C(=O)C=CC3=O)ccc2Cl)c1	.	-12	111	84
Fc1cccc(NCc2cccn2-c2nnc(N3CCCC3)s2)c1	108	-22	100	96
CCOC(=O)c1ccc(-c2ccc(/C=C(/C#N)C(=O)Nc3ccc(C)cc3C)o2)cc1	163	-16	92	82
COc1ccc2c(c1)CC(C(=O)N1CCC(C(N)=O)CC1)CO2 (stereo unspecified)	98	.	81	91
CCOC(=O)CSc1nnc2sc3ccccc3n12	110	42	121	91

# Full records from above. Screens in order: GIV-Gai inh	HCMV UL50-53 inh	Sa growth inh	Sa growth inh second temp
# COc1ccc2c(c1)CC(C(=O)N1CCC(C(N)=O)CC1)CO2 (stereo unspecified) as listed: 98	.	81	91
# O=C(CCN1C(=O)c2ccccc2S1(=O)=O)N1CCOCC1 as listed: 102	-4	93	100
# CC(C)C(=O)N1c2ccccc2NC2=C(C(=O)CC(C)(C)C2)C1c1cccc(Cl)c1 (stereo unspecified) as listed: 106	0	.	.
# C=CCNC(=O)Nc1c[nH]c2ccc(F)cc2c1=O as listed: 96	-16	88	91
# CC(=O)N1CCc2c(sc3c2c(=O)n(-c2ccccc2)c(=O)n3Cc2ccccc2C#N)C1 as listed: 103	1	97	80

# (continued)
canonical_smiles	GIV-Gai inh	HCMV UL50-53 inh	Sa growth inh	Sa growth inh second temp
Cc1csc(NC(=O)C2CCCN(S(=O)(=O)c3c[nH]c(C(=O)N4CCCC4)c3)C2)n1 (stereo unspecified)	106	-13	.	.
Cn1nc(-c2ccccc2)c(C#N)c1S(C)(=O)=O	106	5	95	84
O=C1c2ccccc2C(NCc2cccnc2)N1Cc1cccnc1 (stereo unspecified)	.	-10	124	85
Nc1cccc(-c2cn3ccccc3n2)c1	102	2	97	87
CCCCc1c(C)nc(-c2ccc(Cl)cc2)[nH]c1=O	99	-32	104	88
COc1c(C)cnc2c1c(=O)n(CC(=O)Nc1cccc(C)c1)c(=O)n2C	101	0	.	.
CCOc1ccc(NC(=O)CSc2nc3nc[nH]c3c(=O)[nH]2)cc1	107	-4	.	.
CCc1nc2sc3c(NCCN4CCOCC4)ncnc3c2c2c1CCCC2	107	-14	88	89
COc1ccc(-c2cc(CCCC(=O)NCCc3ccc(OC)cc3OC)no2)cc1	110	10	96	98
O=C(O)C1CCCCC1C(=O)N1CCN(C(c2ccccc2)c2ccccc2)CC1 (stereo unspecified)	97	.	120	86
Cc1cc2c(=O)n(CC(=O)O)cnc2s1	99	-19	88	88
CCOCCn1ccc2c(OCC(=O)Nc3cc(C(F)(F)F)ccc3Cl)cccc2c1=O	98	.	110	85
COC(=O)CSc1ccccc1C(=O)OC	105	-19	139	99
Cc1cc(NN)nc2ccc(Cl)cc12	.	-1	75	84
C=C(C)Cn1c(C(O)c2ccccc2)nc2ccccc21 (stereo unspecified)	101	-14	71	69

# Marked active in GIV-Gai inh (from the list above):
structure	GIV-Gai inh	Sa growth inh second temp
CCN(CC)c1ccc2cc(-c3nnc(Nc4ccc(C)cc4)s3)c(=O)oc2c1	-70*	103
O=c1oc2ccccc2nc1/C=C(\O)c1ccccc1	46*	96

# Further structures:
canonical_smiles	GIV-Gai inh	HCMV UL50-53 inh	Sa growth inh	Sa growth inh second temp
CCOC(=O)c1cc(=O)n(C)c2c1c(=O)oc1ccccc12	113	-77	105	100
CCOC(=O)c1[nH]c2c(c1-c1ccccc1)C(=O)CC(c1ccc(Cl)cc1)C2 (stereo unspecified)	104	.	97	89
CCCN(CCC)S(=O)(=O)c1ccc(C(N)=O)cc1	.	2	89	90
Cc1ccccc1N=Cc1ccco1	161	.	97	66
CCOC(=O)/C(=C(/C)Nc1ccc(F)cc1)C1CC(=O)N(c2ccc(F)cc2)C1=O (stereo unspecified)	98	.	113	80
C1=CC2c3c(ccc4ccccc34)NC(c3cccc4ccccc34)C2C1 (stereo unspecified)	104	-4	.	.
Cn1c(SCC(=O)c2ccccc2)nc2ccccc2c1=O	103	42	116	100
CCn1c(=O)c(=O)[nH]c2cc(-c3noc(-c4cnccn4)n3)ccc21	97	-24	.	.
COc1ccc(-c2ccc(CCC(=O)O)n2-c2ccccc2C(F)(F)F)cc1	100	18	108	99
Cn1cnnc1SCC(=O)Nc1sc2c(c1C#N)CCC2	105	-16	83	91
Cc1ccc(-n2nnc(C(=O)OCc3ccccc3)c2C)cc1Cl	103	-27	.	.
CCCOc1ccc(Br)cc1/C=C1\NC(=S)NC1=O	98	.	91	64
CN(C)C(=O)c1ccc2c(c1)N(CC(=O)NCc1cccnc1)C(=O)CO2	99	-10	.	.

# Shown as labelled records: part of the list above.
Structure: O=C(c1c(-c2ccccc2)nnc2ccccc12)N1CC=C(c2ccccc2)CC1
  GIV-Gai inh: 99; HCMV UL50-53 inh: -24; Sa growth inh: .; Sa growth inh second temp: .

Structure: CCOC(=O)c1[nH]c2c(c1-c1ccccc1)C(=O)CC(c1ccc(Cl)cc1)C2 (stereo unspecified)
  GIV-Gai inh: 104; HCMV UL50-53 inh: .; Sa growth inh: 97; Sa growth inh second temp: 89

# Rows are unselected. About 0.79% of those tested had a hit in this group.
